# UUG fidelity: alters start codon recognition fidelity in yeast. S. cerevisiae UUG-firefly luciferase reporter, luminescence/redox ratio. activity score, % at 18.7 µM. 0.13% of 350,000 active;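 active means replicate mean at a twofold rise or more, about +100% in these data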;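 further: firefly luciferase made from a UUG start codon reports start codon fidelity; reporter light over untreated wells divided by growth signal over untreated wells; some hits fall short of that in this replicate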
# The depositor's hits bear a star. An excerpt (hit frequency here may not be typical).
# Sample of the layout:
molecule	UUG fidelity
C[C@@H]1CN([C@@H](C)CO)C(=O)c2cccc(NC(=O)C3CCOCC3)c2O[C@@H]1CN(C)S(=O)(=O)c1ccccc1	7.7
O=C(C[C@@H]1CC[C@@H]2[C@H](COC[C@@H](O)CN2S(=O)(=O)c2ccc(F)cc2)O1)NCc1ccc(Cl)c(Cl)c1	-5.5

# Results, from the start:
molecule	UUG fidelity
C[C@@H]1CN([C@@H](C)CO)C(=O)c2cccc(NC(=O)C3CCOCC3)c2O[C@@H]1CN(C)S(=O)(=O)c1ccccc1	7.7
O=C(C[C@@H]1CC[C@@H]2[C@H](COC[C@@H](O)CN2S(=O)(=O)c2ccc(F)cc2)O1)NCc1ccc(Cl)c(Cl)c1	-5.5
O=C(c1ccccn1)N1CC[C@@H]2[C@H]1c1cc(-c3ccccc3F)ccc1N[C@@H]2CO	-25.2
CCC(=O)NC[C@@H]1[C@@H](c2ccccc2)[C@H](CO)N1C(=O)C1CC1	-2.3
O=S(=O)(c1ccccc1F)N1CC[C@@H]2[C@@H](CO)Nc3ccc(-c4ccccc4)cc3[C@@H]21	-13.0
C/C=C/c1ccc([C@H]2[C@@H](CNC(=O)NC(C)C)N(C(=O)C3CCC3)[C@H]2CO)cc1	-2.6
O=C(c1ccncc1)N1C[C@H]2[C@@H](c3ccccc31)[C@H](CO)N2C(=O)c1ccccc1F	-10.7
COCC(=O)N1CCCCN2[C@@H](CO)[C@@H](c3ccc(C#Cc4cccnc4)cc3)[C@@H]2C1	-2.6
CCC(=O)N1C[C@@H]2[C@H](c3ccccc31)[C@H](CO)N2C(=O)CC	-2.3
O=C(Nc1cccc(F)c1)N1CCCCN2[C@H](CO)[C@H](c3ccc(-c4ccccc4F)cc3)[C@H]2C1	-2.8
C[C@H]1CN([C@@H](C)CO)C(=O)c2cccc(NS(=O)(=O)c3ccccc3)c2O[C@@H]1CN(C)Cc1ccccc1	0.4
C[C@@H]1CN([C@@H](C)CO)C(=O)c2cc(NC(=O)CCN3CCOCC3)ccc2O[C@@H]1CN(C)C(=O)Nc1ccc(C(F)(F)F)cc1	-1.6
COCC(=O)N(C)C[C@@H]1[C@@H](c2ccccc2)[C@H](CO)N1C(=O)Cc1ccncc1	-10.8
C[C@@H]1CN([C@H](C)CO)C(=O)Cc2cc(NC(=O)CCCN(C)C)ccc2O[C@@H]1CN(C)S(=O)(=O)c1ccc(Cl)cc1	11.0
C[C@@H]1CN([C@@H](C)CO)C(=O)c2cc(NC(=O)Nc3cccc4ccccc34)ccc2O[C@@H]1CN(C)Cc1ccc(C(=O)O)cc1	6.8
CO[C@H]1CN(C)C(=O)c2ccc(NC(=O)C3CC3)cc2OC[C@H](C)N(CC2CC2)C[C@H]1C	-13.2
Cc1cccc(S(=O)(=O)N2C[C@@H]3[C@H](c4ccccc42)[C@@H](CO)N3CC2CCOCC2)c1	-5.7
C[C@@H]1CN([C@@H](C)CO)C(=O)c2cccc(NC(=O)c3ccncc3)c2O[C@@H]1CN(C)C	-0.6
C[C@@H]1CN([C@H](C)CO)C(=O)c2cc(NC(=O)Cc3cn(C)c4ccccc34)ccc2O[C@H]1CN(C)Cc1ccc2c(c1)OCO2	8.2
C[C@@H]1CN([C@H](C)CO)C(=O)Cc2cc(NC(=O)CCC(F)(F)F)ccc2O[C@@H]1CN(C)CC1CCCCC1	11.4
CN1C(=O)c2cc(NC(=O)c3cccc(F)c3)ccc2OC[C@@H]2O[C@H](CC(=O)Nc3ccccc3)CC[C@H]21	-6.6
CCC(=O)NC[C@H]1[C@@H](c2ccc(-c3ccccc3)cc2)[C@@H](CO)N1C(=O)C1CC1	-10.5
CC(=O)NC[C@@H]1[C@@H](c2ccc(-c3cccnc3)cc2)[C@H](CO)N1C(=O)C1CCC1	-16.0
CC(=O)N(C)C[C@H]1OCc2ccccc2-c2c(n(C)c3ccccc23)C(=O)N([C@H](C)CO)C[C@@H]1C	8.9
CO[C@@H]1CN(C)C(=O)c2cc(NS(=O)(=O)c3cn(C)cn3)ccc2OC[C@@H](C)N(Cc2cccc(F)c2)C[C@@H]1C	-9.9
C/C=C/c1ccc([C@@H]2[C@H]3CN(S(=O)(=O)c4ccc(F)cc4)CCCCN3[C@H]2CO)cc1	3.8
CC(C)NC(=O)N(C)C[C@H]1Oc2ccc(NS(=O)(=O)c3ccc(F)cc3)cc2C(=O)N([C@@H](C)CO)C[C@@H]1C	-4.1
COc1cccc(S(=O)(=O)Nc2ccc3c(c2)C(=O)N(C)C[C@@H](OC)[C@@H](C)CN(C(=O)Cc2cccnc2)[C@H](C)CO3)c1	0.2
CO[C@H]1CN(C)C(=O)c2ccc(NC(=O)C3CC3)cc2OC[C@@H](C)N(C)C[C@H]1C	40.1
CC(=O)N1[C@H](CNC(=O)C2CC2)[C@@H](c2ccc(-c3cccc(F)c3)cc2)[C@@H]1CO	-10.9
CCN1[C@@H]2c3ccc(-c4ccccc4)c(=O)n3C[C@@H]2[C@@H](CO)[C@@H]1C(=O)NCCc1cn(C)cn1	0.5
Cc1cccc(S(=O)(=O)N2C[C@@H](O)COC[C@@H]3O[C@@H](CC(=O)N4CCN(C)CC4)CC[C@H]32)c1	-0.4
C[C@@H]1CN([C@@H](C)CO)C(=O)Cc2cc(NC(=O)Nc3ccc4c(c3)OCO4)ccc2O[C@@H]1CN(C)Cc1ccncc1	-7.1
OC[C@@H]1[C@H](c2ccc(-c3ccccc3F)cc2)[C@H]2CN(Cc3ccncc3)CCCCN12	-9.1
COCC(=O)Nc1ccc2c(c1)OC[C@@H](C)N(CC1CCCCC1)C[C@H](C)[C@@H](OC)CN(C)C2=O	-8.0
CN1CCN(C(=O)C[C@H]2C[C@H]3c4cc(NC(=O)Nc5ccc(F)cc5)ccc4O[C@H]3[C@@H](CO)O2)CC1	9.4
Cc1noc(C)c1NC(=O)N(C)C[C@@H]1Oc2c(NS(=O)(=O)c3cn(C)cn3)cccc2C(=O)N([C@H](C)CO)C[C@H]1C	5.4
O=C(Cc1ccccc1)N1C[C@@H]2[C@H](c3ccccc31)[C@H](CO)N2C(=O)c1ccc(F)cc1	16.6
O=S(=O)(c1ccccc1F)N1CCCCN2[C@H](C1)[C@H](c1ccc(-c3ccncc3)cc1)[C@@H]2CO	11.0
C/C=C/c1ccc([C@@H]2[C@H](CO)N(S(C)(=O)=O)[C@H]2CN(CC)C(=O)CC)cc1	8.9
COc1ccc(S(=O)(=O)Nc2ccc3c(c2)C(=O)N([C@H](C)CO)C[C@@H](C)[C@@H](CN(C)Cc2ccncc2)O3)cc1	-3.8
C[C@H](CO)N1C[C@H](C)[C@@H](CN(C)Cc2ccc3c(c2)OCO3)Oc2ccc(NS(=O)(=O)c3ccc(Cl)cc3)cc2C1=O	-0.6
C[C@@H]1CN([C@@H](C)CO)C(=O)c2cc(NC(=O)Nc3ccccc3)ccc2O[C@@H]1CN(C)C(=O)NC1CCCCC1	-2.8
C[C@@H]1CN([C@H](C)CO)C(=O)c2cc(NC(=O)CCCN(C)C)ccc2O[C@@H]1CN(C)Cc1ccc(-c2ccccc2)cc1	-8.9
COc1ccccc1NC(=O)N1CCCCN2[C@@H](CO)[C@@H](c3ccc(-c4cccc(F)c4)cc3)[C@@H]2C1	8.7
CCCC#Cc1ccc2c(c1)[C@H]1[C@H](CCN1S(=O)(=O)c1ccc(F)cc1)[C@H](CO)N2C	-10.0
COc1ccc(S(=O)(=O)N(C)C[C@H]2OCc3ccccc3-c3ccccc3C(=O)N([C@H](C)CO)C[C@H]2C)cc1	-0.1
CO[C@H]1CN(C)C(=O)c2ccc(NC(=O)C3CCCCC3)cc2OC[C@H](C)N(Cc2nccs2)C[C@H]1C	18.6
CCNC(=O)[C@@H]1[C@@H](CO)[C@@H]2Cn3c(ccc(-c4ccccc4)c3=O)[C@H]1N2C(=O)c1ccccn1	10.9
CO[C@H]1CN(C)C(=O)c2ccc(NS(C)(=O)=O)cc2OC[C@H](C)N(C)C[C@H]1C	2.7
CC(C)NC(=O)Nc1ccc2c(c1)CC(=O)N([C@H](C)CO)C[C@H](C)[C@@H](CN(C)C(=O)Nc1ccc(C(F)(F)F)cc1)O2	5.9
CC(=O)N1CCCCN2[C@H](C1)[C@@H](c1ccc(-c3ccc(C)cc3)cc1)[C@@H]2CO	-2.8
COc1ccccc1S(=O)(=O)N1C[C@H](O)COC[C@@H]2O[C@H](CC(=O)O)CC[C@H]21	-5.8
C[C@H](CO)N1C[C@H](C)[C@H](CN(C)Cc2ccc(-c3ccccc3)cc2)Oc2ccc(NS(=O)(=O)c3cn(C)cn3)cc2C1=O	-5.4
C[C@@H]1CN([C@@H](C)CO)C(=O)c2cc(NC(=O)CCN3CCOCC3)ccc2O[C@@H]1CN(C)S(=O)(=O)c1ccccc1	2.7
CCCNC(=O)Nc1ccc2c(c1)OC[C@@H](C)N(Cc1ccc(-c3ccccn3)cc1)C[C@@H](C)[C@H](OC)CN(C)C2=O	6.1
C[C@H]1CN([C@@H](C)CO)C(=O)c2cccc(NS(C)(=O)=O)c2O[C@@H]1CN(C)C(=O)Nc1ccc(C(F)(F)F)cc1	-7.0
O=C(Nc1ccccc1)N1CCCCN2[C@@H](CO)[C@H](c3ccc(Br)cc3)[C@@H]2C1	8.2
CO[C@H]1CN(C)C(=O)c2ccc(NS(C)(=O)=O)cc2OC[C@H](C)N(C(=O)C2CCC2)C[C@@H]1C	-5.7
COc1ccccc1C#Cc1ccc2c(c1)[C@@H]1[C@@H](CCN1C(=O)Cc1ccccc1)[C@@H](CO)N2	-4.4

# New compounds follow
molecule	UUG fidelity
CC(C)CC#Cc1ccc([C@@H]2[C@@H](CO)N3CCCCN(S(=O)(=O)Cc4ccccc4)C[C@@H]23)cc1	3.8
C[C@H](NC(=O)C[C@H]1CC[C@@H]2[C@@H](COc3ccc(NC(=O)C4CCOCC4)cc3C(=O)N2C)O1)c1ccccc1	26.2
C[C@H]1CN([C@@H](C)CO)C(=O)c2cc(N(C)C)ccc2O[C@@H]1CN(C)Cc1ccc(-c2ccccc2)cc1	-10.5
COc1cccc(S(=O)(=O)N2CC[C@H]3[C@@H](CO)N(C)c4ccc(C#Cc5ccc(F)cc5)cc4[C@H]32)c1	-15.1
C[C@H](CO)N1C[C@H](C)[C@H](CN(C)C(=O)Nc2ccc(F)cc2)Oc2c(NS(=O)(=O)c3ccccc3)cccc2C1=O	1.3
CC(C)OC(=O)N(C)C[C@H]1OCc2ccccc2-c2c(n(C)c3ccccc23)C(=O)N([C@@H](C)CO)C[C@H]1C	6.1
C[C@@H]1CN([C@H](C)CO)C(=O)c2cc(NS(=O)(=O)c3cccs3)ccc2O[C@H]1CN(C)C(=O)Nc1ccc(C(F)(F)F)cc1	0.4
C[C@H](CO)N1C[C@H](C)[C@H](CN(C)CC2CCCCC2)Oc2ccc(NC(=O)Nc3ccccc3)cc2CC1=O	-5.4
Cc1noc(C)c1S(=O)(=O)N(C)C[C@@H]1Oc2c(NC(=O)C3CCCCC3)cccc2C(=O)N([C@H](C)CO)C[C@@H]1C	28.5
Cc1cccc(-c2ccc([C@@H]3[C@H](CO)N4CCCCN(S(=O)(=O)c5ccccc5C)C[C@@H]34)cc2)c1	4.2
Cc1ccc(S(=O)(=O)Nc2cccc3c2O[C@H](CN(C)C(=O)NC(C)C)[C@@H](C)CN([C@@H](C)CO)C3=O)cc1	5.7
C[C@@H]1CN([C@@H](C)CO)C(=O)c2cccc(NC(=O)Nc3ccc4c(c3)OCO4)c2O[C@@H]1CN(C)S(=O)(=O)c1cccs1	0.2
COc1ccc(CN(C)C[C@@H]2Oc3ccc(NS(=O)(=O)c4ccc(Cl)cc4)cc3C(=O)N([C@H](C)CO)C[C@H]2C)cc1	-6.4
CC(C)NC(=O)N(C)C[C@H]1OCc2ccccc2-c2ccccc2C(=O)N([C@@H](C)CO)C[C@H]1C	9.1
COc1ccc(NC(=O)N2C[C@@H]3[C@H](c4ccccc42)[C@@H](CO)N3C(=O)C2CCCCC2)cc1	11.6
CC(=O)N1C[C@H]2[C@@H](c3ccccc31)[C@@H](CO)N2Cc1ccc(Cl)cc1	-7.5
CC(C)NC(=O)N1CCCCN2[C@H](CO)[C@H](c3ccc(Br)cc3)[C@H]2C1	22.3
C[C@@H]1CN([C@@H](C)CO)C(=O)c2cccc(NC(=O)C3CCOCC3)c2O[C@@H]1CN(C)S(=O)(=O)c1cn(C)cn1	-16.8
O=C(C[C@H]1CC[C@H]2[C@@H](COC[C@@H](O)CN2Cc2ccncc2)O1)NCc1ccncc1	-6.8
CN1C(=O)c2cc(NS(C)(=O)=O)ccc2OC[C@H]2O[C@@H](CC(=O)O)CC[C@@H]21	-12.9
COCC(=O)Nc1ccc2c(c1)[C@H]1C[C@H](CC(=O)NCc3ccccc3OC)O[C@@H](CO)[C@H]1O2	-13.5
O=C(C[C@H]1CC[C@@H]2[C@H](COC[C@@H](O)CN2C(=O)Nc2ccc(F)cc2)O1)NC1Cc2ccccc2C1	8.4
CCCN1C[C@@H](C)[C@@H](OC)CN(C)C(=O)c2ccc(NC(=O)c3cnccn3)cc2OC[C@H]1C	-4.8
COc1ccc(S(=O)(=O)N(C)C[C@@H]2Oc3ccc(NC(=O)CCC(F)(F)F)cc3C(=O)N([C@@H](C)CO)C[C@@H]2C)cc1	2.6

# Some of the entries above, set out differently.
Compound: COCC(=O)Nc1ccc2c(c1)[C@H]1C[C@H](CC(=O)NCc3ccccc3OC)O[C@@H](CO)[C@H]1O2
  UUG fidelity = -13.5

Compound: O=C(C[C@H]1CC[C@@H]2[C@H](COC[C@@H](O)CN2C(=O)Nc2ccc(F)cc2)O1)NC1Cc2ccccc2C1
  UUG fidelity = 8.4

Compound: CCCN1C[C@@H](C)[C@@H](OC)CN(C)C(=O)c2ccc(NC(=O)c3cnccn3)cc2OC[C@H]1C
  UUG fidelity = -4.8

Compound: COc1ccc(S(=O)(=O)N(C)C[C@@H]2Oc3ccc(NC(=O)CCC(F)(F)F)cc3C(=O)N([C@@H](C)CO)C[C@@H]2C)cc1
  UUG fidelity = 2.6
